# KCNQ2 pot: enhances the rat KCNQ2 potassium channel; O88943; CHO-K1 KCNQ2, FluxOR thallium flux fluorescence; active compounds read high; B-score at 10 µM; 0.54% of 310,000 active; AID 2239;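 active means fluorescence ratio B-score at least 3 SD of library B-scores, with initial fluorescence B-score within 3 SD, cut at about 5.3 in these data; same plate scores as AID 2156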;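 further: B-score of peak minus minimum over baseline fluorescence ratio after K+ and Tl+ stimulus; positive B-score means potentiation of KCNQ2 with more thallium influx and brighter signal; only the inactives scoring about 0 or higher are listed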
# Target sequence (O88943 whole entry, looked up): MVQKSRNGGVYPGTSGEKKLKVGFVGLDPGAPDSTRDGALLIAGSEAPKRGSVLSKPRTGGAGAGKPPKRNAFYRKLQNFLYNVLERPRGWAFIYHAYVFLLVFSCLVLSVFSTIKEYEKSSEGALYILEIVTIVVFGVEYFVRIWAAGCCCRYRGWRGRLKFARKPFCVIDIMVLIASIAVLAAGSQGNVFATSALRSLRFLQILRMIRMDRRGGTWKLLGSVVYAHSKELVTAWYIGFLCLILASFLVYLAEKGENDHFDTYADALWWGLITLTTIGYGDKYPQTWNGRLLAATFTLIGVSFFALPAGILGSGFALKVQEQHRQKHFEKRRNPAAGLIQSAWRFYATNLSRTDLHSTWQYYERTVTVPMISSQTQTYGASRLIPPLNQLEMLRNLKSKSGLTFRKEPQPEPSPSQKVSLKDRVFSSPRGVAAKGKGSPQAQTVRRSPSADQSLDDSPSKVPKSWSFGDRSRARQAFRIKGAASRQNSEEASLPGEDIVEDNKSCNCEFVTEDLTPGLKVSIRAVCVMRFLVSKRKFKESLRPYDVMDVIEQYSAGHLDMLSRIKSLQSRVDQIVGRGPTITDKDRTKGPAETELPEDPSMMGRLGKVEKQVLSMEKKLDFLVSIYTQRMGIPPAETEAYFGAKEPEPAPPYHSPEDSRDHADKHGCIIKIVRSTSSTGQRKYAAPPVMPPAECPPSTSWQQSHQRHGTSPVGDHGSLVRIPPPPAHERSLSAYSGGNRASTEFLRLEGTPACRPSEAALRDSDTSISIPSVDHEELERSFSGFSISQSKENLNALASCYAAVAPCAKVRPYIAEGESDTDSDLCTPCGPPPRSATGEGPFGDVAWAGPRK
# KCNQ2 pot baseline: second read-out of KCNQ2 pot, no call of its own (marks repeat the call); B-score; compound at 10 µM; measured here: initial fluorescence intensity artifact check;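 brightness before thallium and not channel activity; 0 = typical well and far values either way flag optical interference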
# * = called active by the depositor. The list is partial; rates above refer to the full screens.
# Every second line gives: KCNQ2 pot | KCNQ2 pot baseline
CC1CC(C)CN(C(=O)CCc2nnc3ccc(N4CCCCC4)nn23)C1 (stereo not given)
    0.88 | -0.91
CNc1nc(SC(C)C(=O)Nc2ccc(Cl)c(Cl)c2)nc(N2CCOCC2)n1 (stereo not given)
    1.24 | 1.04
O=C(NCc1cccs1)c1cc(-c2cccs2)on1
    0.89 | -2.43
COC(=O)c1ccc(CSc2nnc(CNC(=O)COc3ccc(Cl)cc3)o2)o1
    0.65 | -0.47
c1ccc(-c2cn3c(n2)-c2ccccc2C3)cc1
    0.05 | -0.01
O=C(Nc1nc2c(Br)cccc2s1)C1CC1
    2.01 | -0.79
CC(C)NC(=O)c1ccccc1NC(=O)C(C)Oc1ccccc1 (stereo not given)
    0.58 | 1.72
Cn1nnnc1SCC(=O)Nc1nc2c(s1)CCCC2
    0.63 | 0.11
COc1ccc([C@H]2/C=C\CN(S(=O)(=O)c3ccc(C)cc3)[C@@H](C)C(=O)N2Cc2ccc(F)cc2)cc1
    0.26 | 1.65
CCNc1sc(C(=O)c2cccs2)c(N)c1C#N
    0.04 | -0.02
COc1cc(C(=O)NNC(=O)c2ccco2)cc(OC)c1OC
    1.39 | -1.47
CCn1cc(CN2CCCC(C(=O)Nc3ccc(-c4cscn4)cc3)C2)c(C)n1 (stereo not given)
    0.08 | -0.6
CCc1cccc(NC(=S)N(CCCOC(C)C)C2CCN(C(C)=O)CC2)c1
    0.07 | 0.28
CCOC(=O)Cn1c(=O)oc2cc(S(=O)(=O)N(C)Cc3ccco3)ccc21
    1.25 | 0
Cc1ccc(CSCCC(=O)NCCC2=CCCCC2)cc1
    1.09 | 0.29
O=C(Nc1cccc(C(F)(F)F)c1)Nc1ccc(N2CCCC2)c(S(=O)(=O)Nc2ccccc2Cl)c1
    0.1 | -0.3
CC(=O)c1c(C)n(-c2ccc(C)cc2C)c2ccc(O)cc12
    1.79 | -0.17
Cc1cccn2cc(-c3ccc(Cl)cc3)nc12
    0.64 | -0.63
COc1ccc(S(=O)(=O)NCCC(=O)NCc2ccc(F)cc2)cc1
    0.02 | -1.93
COc1ccc(CNC(=O)N2CCN(S(=O)(=O)c3ccc(C)cc3C)CC2)cc1
    1.39 | -0.01
CC1Cc2ccccc2N1C(=O)C1CCCN(S(=O)(=O)c2cccc3nsnc23)C1 (stereo not given)
    0.86 | -0.42
CC1CCC2(CC1)NC(=S)N(C(C)(C)C)N2 (stereo not given)
    0.54 | 0.67
O=C(c1cccc([N+](=O)[O-])c1)N1CCN(c2ccc(Cl)cc2)CC1
    0.7 | 0.32
O=C(c1ccc(-c2cccc(C(F)(F)F)c2)o1)N1CCOCC1
    2.49 | -1.77
CCOC(=O)c1c(N2C(=O)C3C4C=CC(C4)C3C2=O)sc2c1CCC(C)C2 (stereo not given)
    6.67* | -0.58*
Cc1ccccc1NC(=O)CCN1CCN(CCO)CC1
    0.03 | -0.62
Cn1c(N2CCOCC2)c(C#N)c2ccccc21
    0.67 | -0.05
O=C(CSCc1cccc(Cl)c1)OCc1nc2ccsc2c(=O)[nH]1
    1.27 | -0.06
O=C(Nc1cccc([N+](=O)[O-])c1)c1cnccn1
    0.68 | 0.04
CC(C)n1c(SCC(=O)Nc2ccccc2)nc2c1c(=O)n(C)c(=O)n2C
    2.15 | -0.03
COc1ccc(-c2c(-c3ccc(OCC(=O)NN)cc3O)n[nH]c2C)cc1
    2.39 | -0.95
CC(=O)N/C(=C/c1ccccc1)C(=O)NC(Cc1ccccc1)C(=O)O (stereo not given)
    2.84 | 2.72
CCc1ccccc1NC(=O)CSc1nc2ccccc2n1CC(=O)N1CCCC1
    0.22 | -0.61
COc1ccc(C2=NN(S(C)(=O)=O)C(c3ccc4nccnc4c3)C2)cc1 (stereo not given)
    2.37 | -0.23
CCOc1ccc(NC(=O)CCCN2C(=O)C(c3ccccc3)Oc3cccnc32)cc1 (stereo not given)
    0.56 | 1.72
COc1ccc(NC(=O)C2Cc3ccccc3CN2C(=O)c2ccco2)cc1 (stereo not given)
    0.35 | -0.32
Cc1ccc(F)cc1NC(=O)COC(=O)C1CCN(c2ccc(C(F)(F)F)cn2)CC1
    0.12 | 0.71
CCn1cc(C(=O)NCC2CCCO2)c(=O)c2cc(S(=O)(=O)N3CCC(C)CC3)ccc21 (stereo not given)
    0.04 | -0.06
CCC(C)(C#CCN1CCCCC1)OCCC#N (stereo not given)
    0.67 | -0.05
COC(=O)c1cn(C(=O)c2ccco2)c2ccccc12
    1.25 | -0.7
O=C(COc1coc(CN2CCc3ccccc3C2)cc1=O)Nc1cccc([N+](=O)[O-])c1
    1.3 | 0.32
Cc1ccc(N2C(=O)CCSC23C(=O)Nc2ccccc23)cc1 (stereo not given)
    0.53 | -0.03
O=c1cc(N2CCCC2)c2ccccc2o1
    0.09 | 0.01
Cc1cccc(C)c1NC(=O)c1ccccc1C(=O)O
    0.01 | -0.07
COc1ccc(NC(=O)C2CCCNC2=O)cc1 (stereo not given)
    0.01 | -1.03
Cn1cc(C(=O)Nc2cccc(F)c2)cn1
    0.73 | 0.29
N=c1c(C(=O)NCc2ccc3c(c2)OCO3)cc2c(=O)n3ccccc3nc2n1CC1CCCO1 (stereo not given)
    3.01 | 0.67
CCOC(=O)CON1C(=O)C(C)(C)N(OCC(=O)OCC)C(=O)C1(C)C
    0.05 | 0.81
C=CCNc1nc2c(c(=O)n(C)c(=O)n2C)n1CCCCCC
    0.77 | -0.55
COc1cccc(-n2c(SCC(=O)NC3CCCC3)nnc2-c2ccco2)c1
    0.45 | -0.01
CCOC(=O)c1[nH]ncc1CN1CCN(Cc2ccccc2)C(CCO)C1 (stereo not given)
    0.86 | 0.06
O=C(C1CCN(Cc2cn[nH]c2-c2ccc(F)cc2F)CC1)N1CCOCC1
    0.03 | -0.97
Nc1nc(NCc2c(F)cccc2Cl)nn1-c1ccccc1
    1.24 | -2
Cn1c(=O)c2c(ncn2CC(=O)OCC(=O)NCc2ccc(Cl)cc2)n(C)c1=O
    0.98 | -2.77
CCOc1ccc(-n2c(N)c(C(=O)N3CCN(C)CC3)sc2=S)cc1
    0.54 | -1.2
C=CCC(C)(NCc1ccccc1)c1ccccc1 (stereo not given)
    0.08 | 0.31
NNC(=O)CSc1c(-c2cccs2)[nH]c2ccccc12
    1.19 | -0.01
CCOc1ccc(NC(=S)NC(=O)c2ccco2)cc1
    7.76* | -1.22*
CC(=O)N1CCN(Cc2nc3cc(NC(=O)C4CCCCC4)ccc3n2C)CC1
    1.26 | -0.82
Cc1cccc(N2C(=O)C(O)=C(C(=O)c3cccs3)C2c2cccc(Oc3ccccc3)c2)n1 (stereo not given)
    0.05 | 2.41

# New compounds follow
# Every second line gives: KCNQ2 pot | KCNQ2 pot baseline
COc1ccc(CNC(=O)c2cc(C(=O)C3CC3)c[nH]2)cc1
    0.02 | 0.77
CCN1CCN(C(=O)Cn2nc(-c3ccc(Cl)cc3)ccc2=O)CC1
    1.17 | -0.67
COc1cc2nc(=S)n3[nH]c(CCn4c(C)nc5ccccc54)nc3c2cc1OC
    0.12 | -0.08
COc1cc(NC(=O)c2ccccc2)c(OC)cc1NC(=O)Cc1ccccc1
    0.84 | -0.74
CCn1cc(C(=O)Nc2sc(C)c(C)c2C(=O)OC)cn1
    0.37 | 0.77
COc1ccc(OC)c(C2C(C(C)=O)=C(O)C(=O)N2CCN2CCOCC2)c1 (stereo not given)
    1.09 | -1.74
CCc1cc(CNC(=O)C2CCC(=O)N(CCc3ccc(OC)cc3)C2)on1 (stereo not given)
    0.03 | 1.55
CC(=O)N1CCc2cc(C(=O)CN3CCN(c4ccccn4)CC3)ccc21
    1.47 | -0.52
O=C(CNC(=O)c1ccccc1)Oc1ccc([N+](=O)[O-])cc1
    1.48 | 1.01
O=C(c1ccccc1)c1ccc(OCCCCN2CCCCC2)cc1
    2.44 | -1.08
CSCC[C@H](NC(=O)C1CCN(S(=O)(=O)c2ccc(C)cc2)CC1)C(=O)NCC1CCCO1 (stereo not given in full)
    0.25 | -0.69
COc1ccc(/C=C/c2c(-c3cccc(C)c3)oc3ccc(N4CCOCC4)cc23)cc1
    0.18 | 0.61
O=C(NCCc1ccccc1)C1CCCN(S(=O)(=O)c2cccc3nsnc23)C1 (stereo not given)
    0.4 | 0.01
CCOC(=O)N1CCN(S(=O)(=O)c2c(C)cc(C)cc2C)CC1
    0.74 | 0.55
Cc1cccc(C(=O)OCC(=O)NC(=O)Cc2ccccc2)c1O
    0.4 | -0.73
O=C(N/N=C\c1cccc(OC(=O)c2ccco2)c1)c1ccc2c(c1)OCO2
    0.14 | 1.46
Cc1cc(/C=C2/SC(=O)N(CC(=O)OC(C)C)C2=O)c(C)n1C
    0.01 | 0.82
COc1cccc(CNC(=S)Nc2cc(OC)ccc2OC)c1
    0.36 | 0.35
COc1ccc(/C(N)=N/OC(=O)CCC2CCCC2)cc1
    1.2 | 0.15
CCN(C(=O)CSc1nc2ccccc2c(=O)n1Cc1ccc(C)cc1)C1CCS(=O)(=O)C1 (stereo not given)
    0.05 | 1.12

# Some of these compounds in order of length of the SMILES, lowest first.
# Every second line gives: KCNQ2 pot | KCNQ2 pot baseline
CCC(C)(C#CCN1CCCCC1)OCCC#N (stereo not given)
    0.67 | -0.05
O=C(Nc1nc2c(Br)cccc2s1)C1CC1
    2.01 | -0.79
O=C(Nc1cccc([N+](=O)[O-])c1)c1cnccn1
    0.68 | 0.04
COc1ccc(CNC(=O)c2cc(C(=O)C3CC3)c[nH]2)cc1
    0.02 | 0.77
COc1ccc(S(=O)(=O)NCCC(=O)NCc2ccc(F)cc2)cc1
    0.02 | -1.93

# Returning to the listing, starting 4 compounds before the break.
# Every second line gives: KCNQ2 pot | KCNQ2 pot baseline
Cc1cc(/C=C2/SC(=O)N(CC(=O)OC(C)C)C2=O)c(C)n1C
    0.01 | 0.82
COc1cccc(CNC(=S)Nc2cc(OC)ccc2OC)c1
    0.36 | 0.35
COc1ccc(/C(N)=N/OC(=O)CCC2CCCC2)cc1
    1.2 | 0.15
CCN(C(=O)CSc1nc2ccccc2c(=O)n1Cc1ccc(C)cc1)C1CCS(=O)(=O)C1 (stereo not given)
    0.05 | 1.12
Oc1ccc(-c2csc(Nc3ncccn3)n2)cc1
    0.47 | 0.73
COc1ccc(NC(=O)CSc2cc(C)nc3c(-c4ccccc4)cnn23)cc1
    0.25 | 0.89
Cc1cc(NS(=O)(=O)Cc2ccccc2)cc(C)c1OCC(=O)N1CCOCC1
    0.99 | 0.19
CCc1nc(SCC(=O)Nc2ccccc2C(=O)OC)n[nH]1
    1.7 | 1.39
O=C(COc1cc2oc(=O)c3c(c2cc1Cl)CCC3)NCC1CCC(C(=O)O)CC1 (stereo not given)
    1.66 | 0.51
Cc1ccc(C(=O)CSc2nnc(COc3ccc(C#N)cc3)n2-c2ccccc2)cc1
    0.91 | -0.9
CCCS(=O)(=O)N1CCCC(C(=O)N2CCN(c3ccccc3)CC2)C1 (stereo not given)
    0.86 | -0.67
COc1ccc(C)cc1NC(=O)NNC(=O)C(C)Oc1ccc(F)cc1Cl (stereo not given)
    0.88 | 1.49
O=C(CC1C(=O)N(c2ccc(Cl)cc2)C(=S)N1CCc1ccncc1)Nc1ccc(F)cc1 (stereo not given)
    1.11 | -0.12
COc1ccc(-c2cn[nH]c2N)cc1OC
    1.65 | 0.67
Cc1ccc(-n2nc(C)c3c2OC(N)=C(C#N)C3c2ccc(C)o2)cc1 (stereo not given)
    0.55 | -0.02
CC(=O)Nc1ccc2nc(-c3ccco3)[nH]c2c1
    0.45 | 3.1
Cc1ccc(NC(=O)c2ccc(S(=O)(=O)N3CCC(C)CC3)cc2)cc1
    0.41 | -0.35
COc1ccc(Cl)cc1S(=O)(=O)n1ccnc1
    2.41 | -0.88
CCc1nnc(NC(=O)CCC(=O)N2CCN(S(=O)(=O)c3ccc(OC)cc3)CC2)s1
    1.27 | 2.01
Cc1ccccc1C(=O)Nc1ccnn1C1CCN(Cc2ccncc2)CC1
    0.13 | 0.87
Cc1cc(C(=O)N/N=C2\CCCC(C)C2)n[nH]1 (stereo not given)
    0.71 | -0.26
COc1cc(OC)cc(C(=O)NC2CCN(Cc3nnnn3Cc3cccs3)CC2)c1
    1.01 | -1.25
Cc1cc(C)c(NC(=O)CS(=O)CC(=O)Nc2ccc(-n3cnnn3)c(C)c2)c(C)c1 (stereo not given)
    0.03 | 0.45
O=C(N/N=C/c1cc(Br)cs1)c1ccc2c(c1)OCCO2
    0.15 | 3.89
Cc1ccc(NS(=O)(=O)c2ccc(C(=O)NCC3CCCO3)cc2)cc1 (stereo not given)
    1.45 | -0.35
CC(=O)NC(=S)Nc1ccc(NC(=O)COc2ccc(C(C)C)cc2)cc1
    0.2 | -1.37
O=C(CSc1nnc(-c2ccc(F)cc2)n1-c1ccccc1)NCCN1C(=O)CSC1=O
    1.32 | -1.19
Clc1ccc2c(N3CCCC3)ccnc2c1
    0.01 | 0.13
Cc1ccc(CCn2c3c(c4ccccc42)CN(C)CC3)cn1
    0.15 | 0.11
CCn1nc(C)c(CN2CCCC(C(=O)c3cccc(OC(C)C)c3)C2)c1C (stereo not given)
    1.73 | -3.97
CN(C)C(=O)c1ccc(NS(=O)(=O)c2ccc3c(c2)OCCO3)cc1
    1.34 | 0.99
CC(C)=C1SC(N2CCN(Cc3ccccc3)CC2)=NC1=O
    0.2 | 2.6
Cc1ccc(S(=O)(=O)N[C@@H](Cc2ccccc2)C(=O)N2CCC(C(=O)N[C@@H](CCC(N)=O)C(=O)O)CC2)cc1
    1.44 | 0.49
COc1ccccc1C(=O)N/C(=C\c1cn(S(=O)(=O)N(C)C)c2ccccc12)C(=O)N1CCCCC1
    1.13 | 0.07
C=CCOc1ccc(CNC(C)(C)C)cc1OC
    0.81 | -1.06
CCOc1ccc(CN2CCN(Cc3cnn(CC)c3C)CC2CCO)cc1 (stereo not given)
    0.02 | 1.45
CCC(=O)OCC(=O)c1c(N)n(Cc2ccccc2)c(=O)n(C)c1=O
    0.17 | 0.71

# High-throughput results deposited in PubChem BioAssay by Johns Hopkins Ion Channel Center.
